NPYLR7 ag = activates Aedes aegypti NPYLR7 receptor; hit rate 0.15% among 270,000; HEK293T NPYLR7/Galpha15, GCaMP6s calcium fluorescence; activation, % at 10 µM; in the data active = activation above about 40%;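 also: 0% = vehicle and 100% = reference agonist at the receptor; some compounds past the cut are filed as inactive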
NPYLR7 ag max-min = further read-out of NPYLR7 ag, marked with its call; activation, %; measured here: Max-Min RFU normalised activation; some inactives read as strong as hits;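 span of the calcium signal over five minutes; 0% = vehicle and 100% = native peptide agonist; compound fluorescence can raise it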
Numbers without * were called inactive; & = joins results of further samples. Some of the compounds tested; the hit share may differ from the screen's.

Results for CN(C)S(=O)(=O)N1CCc2[nH]nc(C(c3ccccc3)c3ccccc3)c2C1 ?
NPYLR7 ag: 12; NPYLR7 ag max-min: 3

Results for Cc1ccc(CN(C(=O)c2cc(N)ccn2)C2CC2)s1 ?
NPYLR7 ag: 2; NPYLR7 ag max-min: -2

What do the screens show for `CC(C)(CC(=O)O)CC(=O)N[C@H]1CO[C@H]2[C@@H]1OC[C@@H]2Nc1nccc(-c2ccco2)n1`?
NPYLR7 ag: -7; NPYLR7 ag max-min: -13

Results for CC(C)N(CCCc1ccccc1)C(=O)c1ccc[nH]1 ?
NPYLR7 ag: 5; NPYLR7 ag max-min: -1

Results for CCCCCN1N=C(C)C(C)n2c1nc1c2c(=O)n(CCCCC)c(=O)n1C (stereo not drawn) ?
NPYLR7 ag: 8; NPYLR7 ag max-min: 15

Results for CCN(CC)CCN1C(=O)C(O)=C(C(=O)c2cccs2)C1c1cc(OC)c(OC)c(OC)c1 (stereo not drawn) ?
NPYLR7 ag: -3; NPYLR7 ag max-min: -7

How did COCC(=O)N1CCN(Cc2ccc(-c3noc(-c4cccnc4)n3)cc2)CC1 do in these assays?
NPYLR7 ag: 5; NPYLR7 ag max-min: 3

What do the screens show for `Cc1[nH]c2ccc(C(=O)N3CCCC(CO)(Cc4cccc(Cl)c4)C3)cc2c1C` (stereo not drawn)?
NPYLR7 ag: 7&7; NPYLR7 ag max-min: -4&5

What do the screens show for `CNC(=O)[C@H]1C[C@]2(CCCCN(CCOC)C2=O)N(C(=O)NCc2ccccc2)[C@H]1c1ccco1`?
NPYLR7 ag: 3; NPYLR7 ag max-min: 10

What do the screens show for `Cc1ccc(NC(=O)c2nnc(COC(=O)C3CC4CCC3C4)s2)cc1` (stereo not drawn)?
NPYLR7 ag: 25; NPYLR7 ag max-min: 18

Results for Fc1cccc(CSc2nnnn2-c2ccc3c(c2)OCO3)c1 ?
NPYLR7 ag: 2; NPYLR7 ag max-min: -1

What do the screens show for `CC(C)(CNC(=S)NC1CCCCC1)N1CCCCC1`?
NPYLR7 ag: -1; NPYLR7 ag max-min: 7

What do the screens show for `COCCN(CC(=O)N(Cc1ccccc1)Cc1cccn1Cc1cccc(OC)c1)C(=O)c1ccc(Cl)cc1`?
NPYLR7 ag: 16; NPYLR7 ag max-min: 17

Results for CCOC(=O)c1c(NC(=O)c2ccccc2C)sc(C(=O)Nc2ccccc2OC)c1C ?
NPYLR7 ag: -9; NPYLR7 ag max-min: -15

What do the screens show for `O=C1CCCCC1Sc1ccc(C(F)(F)F)cc1[N+](=O)[O-]` (stereo not drawn)?
NPYLR7 ag: 8; NPYLR7 ag max-min: 1

What do the screens show for `CCN1CCc2c(sc3nc(C)nc(N4CCN(C(=O)c5ccc([N+](=O)[O-])cc5)CC4)c23)C1`?
NPYLR7 ag: -1; NPYLR7 ag max-min: 1

How did COc1cc(C(=O)N2CCOC(COCc3ccc(F)cc3Cl)C2)cc(OC)c1C (stereo not drawn) do in these assays?
NPYLR7 ag: 34; NPYLR7 ag max-min: 35

How did CC(C)n1nccc1NC(=O)CSc1nnnn1C1CCCC1 do in these assays?
NPYLR7 ag: 9; NPYLR7 ag max-min: 12

How did Cc1cc(-c2nnc(NC(=O)c3ccno3)o2)n(C)n1 do in these assays?
NPYLR7 ag: -1; NPYLR7 ag max-min: 0

What do the screens show for `N#Cc1ccc(N=Nc2c(-c3ccc([N+](=O)[O-])cc3)[nH]n(-c3ccccc3)c2=O)cc1`?
NPYLR7 ag: -6; NPYLR7 ag max-min: -11

Results for CCOc1ccc2c(c1)c(=O)c(S(=O)(=O)c1ccc(OC)cc1)cn2Cc1ccccc1C ?
NPYLR7 ag: -10; NPYLR7 ag max-min: -16

What do the screens show for `CCCOC(=O)c1ccc(NC(=O)NCC(C)N2CCOCC2)cc1` (stereo not drawn)?
NPYLR7 ag: -2; NPYLR7 ag max-min: -4

What do the screens show for `c1ccc(-c2nc3c(NC4CCCCC4)nccc3[nH]2)cc1`?
NPYLR7 ag: -3; NPYLR7 ag max-min: -9

How did O=C(/C=C/c1ccc(Br)o1)NS(=O)(=O)c1ccc2c(c1)OCCCO2 do in these assays?
NPYLR7 ag: 7; NPYLR7 ag max-min: 6

How did CN(C)C(=O)CSc1nnc(-c2ccc(Br)cc2)o1 do in these assays?
NPYLR7 ag: 12; NPYLR7 ag max-min: 4

How did Cc1cc(Cl)c(C)c(S(=O)(=O)N2CCC(NC(=O)c3ccccc3)CC2)c1Cl do in these assays?
NPYLR7 ag: 7; NPYLR7 ag max-min: -1

What do the screens show for `C=CCCC(O)CN(Cc1cccc(Cl)c1)CC1CC(c2ccccc2)=NO1` (stereo not drawn)?
NPYLR7 ag: -2; NPYLR7 ag max-min: -2

Results for CC(=O)Nc1ccc(CN2c3ccccc3N3CCCC32)cc1 (stereo not drawn) ?
NPYLR7 ag: -4&14; NPYLR7 ag max-min: -11&14

How did O=C(NCc1ccc(-n2cncn2)cc1)c1coc2c1C(=O)CCC2 do in these assays?
NPYLR7 ag: -1; NPYLR7 ag max-min: -4

What do the screens show for `O=C(c1ccc(Cc2ccccc2)o1)N1CCN(c2nc(-c3ccccc3)ns2)CC1`?
NPYLR7 ag: -14; NPYLR7 ag max-min: -17

What do the screens show for `CC(C)Nc1ccc(C(=O)N[C@H](C)C(C)(C)C)cn1`?
NPYLR7 ag: -12; NPYLR7 ag max-min: -19

How did Cc1nn(C)c(N2CCOCC2)c1CNCc1nncn1C do in these assays?
NPYLR7 ag: 1; NPYLR7 ag max-min: 0

Results for CC(=O)OC[C@H]1O[C@@H](SC(=S)N(C)C)[C@H](OC(C)=O)[C@@H](OC(C)=O)[C@@H]1OC(C)=O ?
NPYLR7 ag: 8; NPYLR7 ag max-min: 5

How did COc1ccc(CC(=O)N2CCOC(COCc3ccccc3F)C2)c(OC)c1OC (stereo not drawn) do in these assays?
NPYLR7 ag: 6; NPYLR7 ag max-min: 14

What do the screens show for `C=CCn1c(=N)n(CCOc2ccccc2Cl)c2ccccc21`?
NPYLR7 ag: 1; NPYLR7 ag max-min: 2

How did O=C(CN1C(=O)c2cccc3cccc(c23)C1=O)OCCCc1ccncc1 do in these assays?
NPYLR7 ag: -13; NPYLR7 ag max-min: -20

A draw from above in order of SMILES length, ascending:
How did CN(C)C(=O)CSc1nnc(-c2ccc(Br)cc2)o1 do in these assays?
NPYLR7 ag: 12; NPYLR7 ag max-min: 4

What do the screens show for `C=CCn1c(=N)n(CCOc2ccccc2Cl)c2ccccc21`?
NPYLR7 ag: 1; NPYLR7 ag max-min: 2

How did O=C(CN1C(=O)c2cccc3cccc(c23)C1=O)OCCCc1ccncc1 do in these assays?
NPYLR7 ag: -13; NPYLR7 ag max-min: -20

How did COc1ccc(CC(=O)N2CCOC(COCc3ccccc3F)C2)c(OC)c1OC (stereo not drawn) do in these assays?
NPYLR7 ag: 6; NPYLR7 ag max-min: 14

What do the screens show for `O=C(c1ccc(Cc2ccccc2)o1)N1CCN(c2nc(-c3ccccc3)ns2)CC1`?
NPYLR7 ag: -14; NPYLR7 ag max-min: -17

How did Cc1cc(Cl)c(C)c(S(=O)(=O)N2CCC(NC(=O)c3ccccc3)CC2)c1Cl do in these assays?
NPYLR7 ag: 7; NPYLR7 ag max-min: -1

Results for CC(=O)OC[C@H]1O[C@@H](SC(=S)N(C)C)[C@H](OC(C)=O)[C@@H](OC(C)=O)[C@@H]1OC(C)=O ?
NPYLR7 ag: 8; NPYLR7 ag max-min: 5

Two entries picked at random from those above, as already listed:
How did Cc1cc(Cl)c(C)c(S(=O)(=O)N2CCC(NC(=O)c3ccccc3)CC2)c1Cl do in these assays?
NPYLR7 ag: 7; NPYLR7 ag max-min: -1

How did O=C(NCc1ccc(-n2cncn2)cc1)c1coc2c1C(=O)CCC2 do in these assays?
NPYLR7 ag: -1; NPYLR7 ag max-min: -4

The listing picks up with the 2 entries that preceded the break.
What do the screens show for `C=CCn1c(=N)n(CCOc2ccccc2Cl)c2ccccc21`?
NPYLR7 ag: 1; NPYLR7 ag max-min: 2

How did O=C(CN1C(=O)c2cccc3cccc(c23)C1=O)OCCCc1ccncc1 do in these assays?
NPYLR7 ag: -13; NPYLR7 ag max-min: -20

Results for COc1cccc(CN2CCN(Cc3cccc(SC)c3)CC2=O)c1 ?
NPYLR7 ag: 1; NPYLR7 ag max-min: 2

Results for O=[N+]([O-])c1ccc(N=Nc2c(O)[nH]c3c(Br)cc(Br)cc23)c([N+](=O)[O-])c1 ?
NPYLR7 ag: 0; NPYLR7 ag max-min: -5

How did Cc1ccc(OCCCN2C(=O)NC(C)(C)C2=O)c(I)c1 do in these assays?
NPYLR7 ag: 0; NPYLR7 ag max-min: 9

Results for COc1cccc(CN2CCC(C(=O)NC(c3ccccc3)c3ccsc3)CC2)c1 (stereo not drawn) ?
NPYLR7 ag: 7; NPYLR7 ag max-min: 2

How did Nc1cc(=O)nc(SCC(=O)N2CCN(c3ccccc3)CC2)n1-c1ccccc1 do in these assays?
NPYLR7 ag: -3; NPYLR7 ag max-min: -4

How did O=C(O)c1[nH]ncc1CN1CC[C@@]2(O)CCCC[C@H]2C1 do in these assays?
NPYLR7 ag: 15; NPYLR7 ag max-min: 9

What do the screens show for `O=C1c2ccccc2C(=O)N1c1nccs1`?
NPYLR7 ag: -2; NPYLR7 ag max-min: -1

What do the screens show for `COc1ccc(OC)c(C2NC(=O)N(C)C(C)=C2C(=O)OC2CCCCCC2)c1` (stereo not drawn)?
NPYLR7 ag: -4; NPYLR7 ag max-min: -13

Results for COCCNC(=O)COc1coc(CN2CCc3ccccc3C2)cc1=O ?
NPYLR7 ag: -1; NPYLR7 ag max-min: 50

What do the screens show for `CS(=O)(=O)N1CCC2(CC1)NCCc1[nH]cnc12`?
NPYLR7 ag: 3; NPYLR7 ag max-min: 1

What do the screens show for `Cc1c(O)cccc1C(=O)N1C[C@H](N)C[C@H]1C(=O)NC(C)C`?
NPYLR7 ag: -20; NPYLR7 ag max-min: -18

Results for C#CCN(C)c1nc(-c2ccc(C(F)(F)F)cc2)ncc1C(=O)OCC ?
NPYLR7 ag: -4; NPYLR7 ag max-min: -5

How did CCc1nn(-c2ccccc2)c(NC(=O)C2=CC(=O)CC(C)(C)O2)c1C do in these assays?
NPYLR7 ag: 5; NPYLR7 ag max-min: 4

What do the screens show for `COc1ccc(CNC(=O)c2sc3nc(-c4ccc(OC)cc4)cn3c2C)cc1`?
NPYLR7 ag: 5; NPYLR7 ag max-min: 0

What do the screens show for `Nc1n[nH]c(=S)n1-c1ccccc1`?
NPYLR7 ag: -3; NPYLR7 ag max-min: -3

What do the screens show for `Cc1ccccc1OCCSc1nc2ccccc2n1CCC(=O)O`?
NPYLR7 ag: -14; NPYLR7 ag max-min: -17

What do the screens show for `CCOC(=O)C1CCN(C(=O)C2COC3(CCN(C(=O)c4ccco4)CC3)N2C(=O)c2ccccc2)CC1` (stereo not drawn)?
NPYLR7 ag: 13; NPYLR7 ag max-min: 27

What do the screens show for `CC(C)Cn1nccc1NC(=O)N(Cc1ccc(F)cc1F)C1CC1`?
NPYLR7 ag: -4; NPYLR7 ag max-min: 272

Results for Cc1ccc(-n2c(Cc3ccccc3)nnc2SCc2ccc(C(=O)NCc3cccc(C(F)(F)F)c3)cc2)cc1 ?
NPYLR7 ag: 2; NPYLR7 ag max-min: 18

How did COc1cccc(CNC(=O)c2cc(C)c(F)cc2F)n1 do in these assays?
NPYLR7 ag: -2; NPYLR7 ag max-min: -2

Results for CCc1cnc2c(c1NCCCO)c(=O)n(C)c(=O)n2C ?
NPYLR7 ag: 5; NPYLR7 ag max-min: 3

What do the screens show for `CCCN(Cc1c(-c2ccccc2F)noc1N1CCOCC1)C(=O)NC(C)C`?
NPYLR7 ag: 7; NPYLR7 ag max-min: 9

What do the screens show for `CCCNC(=O)c1cc(-c2ccc(Cl)cc2)n(-c2ccccc2F)c1C`?
NPYLR7 ag: -1; NPYLR7 ag max-min: 5

What do the screens show for `Cc1cccc(Oc2cnn(-c3cccc(Cl)c3)c(=O)c2Nc2cccc(C(=O)N3CCOCC3)c2)c1`?
NPYLR7 ag: 9; NPYLR7 ag max-min: 14

Results for COc1ncccc1-c1cc(N2CCN(C)CC2)nc(N)n1 ?
NPYLR7 ag: 10; NPYLR7 ag max-min: 6

What do the screens show for `CCOC(=O)C1=C(O)/C(=C\c2cccc(F)c2O)SC1=Nc1ccc([N+](=O)[O-])cc1`?
NPYLR7 ag: 9; NPYLR7 ag max-min: 13

Results for Cc1ccn2c(=O)cc(Cn3cnc4ccccc43)nc2c1 ?
NPYLR7 ag: -2; NPYLR7 ag max-min: -5

Results for CC(=O)C1=C(c2ccc(Cl)cc2)N(C(C)=O)n2c(nnc2-c2ccc(C)cc2)S1 ?
NPYLR7 ag: 7; NPYLR7 ag max-min: 3

How did Cc1ccc(-c2n[nH]c(-c3ccncc3)n2)cc1 do in these assays?
NPYLR7 ag: 14; NPYLR7 ag max-min: 3

What do the screens show for `COc1ccc(OC)c(C2SCC(=O)N2CC(=O)Nc2ccc(C)cc2)c1` (stereo not drawn)?
NPYLR7 ag: 32; NPYLR7 ag max-min: 27

How did COC(=O)C1CCN(CC(O)COCc2ccc(NCc3cc(C)n(C)n3)cc2)CC1 (stereo not drawn) do in these assays?
NPYLR7 ag: 2; NPYLR7 ag max-min: 0

How did c1ccc(N=c2scc(-c3ccccc3)n2CCOc2ccccc2)cc1 do in these assays?
NPYLR7 ag: -8; NPYLR7 ag max-min: -14

How did O=C(c1c(O)cccc1O)N1CCCC(OCc2cccnc2)C1 (stereo not drawn) do in these assays?
NPYLR7 ag: 3; NPYLR7 ag max-min: 1

How did CCS(=O)(=O)Oc1cccc(CN(CC2CCCO2)C(=O)c2ccccc2Cl)c1 (stereo not drawn) do in these assays?
NPYLR7 ag: 12; NPYLR7 ag max-min: 19

How did O=C(Nc1cccnc1Cl)NC(CCO)c1cccs1 (stereo not drawn) do in these assays?
NPYLR7 ag: 2; NPYLR7 ag max-min: 3

Results for CC(C)(C)OC(=O)N1CCC(Oc2ccc(NC(=O)c3ccc4ccccc4c3)cc2)C1 (stereo not drawn) ?
NPYLR7 ag: -8; NPYLR7 ag max-min: -13

How did CC1CC(C)(C)CC2(C1)NC(=O)N(CC(=O)NNC(=O)c1cc3c(s1)CCCC3)C2=O (stereo not drawn) do in these assays?
NPYLR7 ag: 5; NPYLR7 ag max-min: 1

Assay outcomes: PubChem, Fisher Drug Discovery Resource Center
